Arbovirus inh: arbovirus infection inhibition. arbovirus infection cell-based antiviral screen. actives 0.37% (n = 200,000). AID 1251. inhibition, % at 10 µM;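 active = inhibition from about 30%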;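 note: bluetongue infection of BSR cells; cell survival read as ATP light after 72 h; 0% = infected wells without compound and 100% = uninfected wells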
Mtb betalactam: beta-lactam sensitization of Mtb H37Rv | M. tuberculosis H37Rv growth with meropenem, percent inhibition; hits of this screen are not shown here | inhibition, % at 25 µM | actives 0.27% (n = 330,000);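 active = about 74% or more and at least 40 points above the plate without the antibiotic, then above 30% in a dose series; inconclusive = first-round hits that could not be retested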;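 note: growth measured after seven days incubation then overnight dye step; 0% = bacteria only wells and 100% = bacteria with antibiotic; twin plates without the antibiotic show which effects depend on it; some results filed as inactive read as strong as hits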
RecA intein inh: Mtb RecA intein splicing inhibition. inhibition, %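 (about 9 µM by stock and volumes)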. cell-free RecA intein splicing, fluorescence. P9WHJ3. actives 0.75% (n = 290,000); in the data active = inhibition above about 30%; inconclusive = no clear call, values can overlap the other calls;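 note: 0% = vehicle wells and 100% = reference inhibitor control wells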
Target sequence (P9WHJ3 whole entry, looked up): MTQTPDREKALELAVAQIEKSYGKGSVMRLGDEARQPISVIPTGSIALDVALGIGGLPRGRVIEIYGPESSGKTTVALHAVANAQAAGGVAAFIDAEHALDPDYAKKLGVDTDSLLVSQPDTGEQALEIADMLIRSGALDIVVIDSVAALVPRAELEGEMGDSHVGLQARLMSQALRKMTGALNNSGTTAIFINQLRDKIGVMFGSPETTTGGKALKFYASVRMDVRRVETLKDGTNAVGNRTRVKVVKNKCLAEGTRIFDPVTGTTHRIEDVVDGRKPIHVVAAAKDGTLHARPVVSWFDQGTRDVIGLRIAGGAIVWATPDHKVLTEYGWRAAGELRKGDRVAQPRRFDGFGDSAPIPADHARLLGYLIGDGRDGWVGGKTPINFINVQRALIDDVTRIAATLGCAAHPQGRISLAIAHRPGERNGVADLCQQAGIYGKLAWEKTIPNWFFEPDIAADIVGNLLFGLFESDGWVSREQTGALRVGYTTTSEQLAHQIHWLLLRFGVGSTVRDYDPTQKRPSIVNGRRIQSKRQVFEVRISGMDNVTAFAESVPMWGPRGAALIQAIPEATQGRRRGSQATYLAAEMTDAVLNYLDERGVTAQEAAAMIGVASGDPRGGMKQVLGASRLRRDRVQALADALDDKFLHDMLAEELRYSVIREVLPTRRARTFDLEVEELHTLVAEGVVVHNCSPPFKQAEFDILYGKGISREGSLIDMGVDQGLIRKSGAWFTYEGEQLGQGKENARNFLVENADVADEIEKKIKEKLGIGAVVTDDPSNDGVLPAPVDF
Mtb H37Rv: M. tuberculosis H37Rv growth inhibitors, H37Rv strain (AID 1626). inhibition, % at 10 µM, or IC50 in µM where a hit was titrated. M. tuberculosis H37Rv growth inhibition; higher % means a stronger effect. actives 0.95% (n = 220,000);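 active = confirmed in a dose series; inconclusive = inhibition above 80% but not taken into the dose series; inactive = below 80% or under 30% at every dose of the series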;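 note: bacteria incubated seven days before Alamar blue readout; 0% = bacteria only wells and 100% = bacteria with antibiotic wells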
YopH inh: blocks Yersinia enterocolitica YopH tyrosine phosphatase. inhibition, %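 (about 10 µM by stock and volumes)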. AID 898. actives 0.16% (n = 140,000). fluorescence Ex485/Em525;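 active = inhibition of 50% or more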;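 note: controls were vehicle for no effect and minimum signal wells for full effect; inactives centre near -20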
* marks the source's active call; other numbers are inactive results; ? = inconclusive; . = not tested or not shown. The list is partial. The share of hits here may be higher or lower than overall.

Every second line gives: Arbovirus inh	Mtb betalactam	RecA intein inh	Mtb H37Rv	YopH inh
COc1ccc(NC(=O)C2CC(=O)N(C(C)C)C2)cc1 (centres undefined)
 : -5.8	0.6	0.3	-11.8%	-35.1
O=C(NCCC1=CCCCC1)C(=O)NCc1ccccc1Cl
 : -9.9	1.0	-0.7	-6.6%	-31.7
O=C(NCCc1ccc(Cl)cc1)C1CCCN1C(=O)Nc1ccc(F)cc1 (centres undefined)
 : .	0.8	1.3	.	.
CC(=O)Oc1ccc(N2C(=O)C3C(C2=O)C2(C)C=CC3(C)O2)cc1 (centres undefined)
 : 1.9	-2.9	.	-6.4%	.
Clc1ccccc1Cn1nc(-c2ccccc2)nc1-c1ccccc1
 : 23.6	9.7	-0.8	8.1%	-37.2
CC(C)Oc1ccc(/C=N/NC(=O)c2nnn(-c3nonc3N)c2CN(C)C2CCCCC2)cc1
 : .	1.5	-5.7	.	.
CNS(=O)(=O)c1cc(N)ccc1C
 : 2.4	-7.1	-0.3	1.9%	.
COC(=O)CN1C(=S)N(c2ccc(OC)cc2)C(=O)/C1=C/c1ccc(OC)cc1
 : 18.7	13.7	.	0.1%	.
CN(C)c1ccc(/C=N\S(=O)(=O)c2ccccc2)cc1
 : 1.2	-0.1	-2.8	8.8%	-14.2
O=C(NCCO)NC(=S)c1ccccc1
 : 8.0	-5.2	0.8	-0.9%	-28.6
Cc1ccc(NC(=O)CSc2nnc3ccccn23)cc1S(=O)(=O)N1CCOCC1
 : 4.6	3.0	1.1	10.5%	.
COC(=O)c1ccccc1NC(=O)C1CCN(S(=O)(=O)c2cc(OC)ccc2OC)CC1
 : -3.4	11.4	1.8	-11.7%	-1.9
C=CCNC(=O)c1onc(CSc2cccc3ccccc23)c1C(=O)O
 : 14.4	6.5	-0.4	-6.9%	-111.4
Cn1c(=O)[nH]c(=O)c2c1nc(CN1CCOCC1)n2CCc1ccccc1
 : -1.4	-0.5	-0.1	-6.8%	36.6
Cc1cc(C2=NNC(=NC3CCCCC3)SC2)c(C)n1-c1c(C)n(C)n(-c2ccccc2)c1=O
 : 9.8	95.5	3.6	5.7%	-18.3
CC(C)CC(NC(N)=O)C(=O)Nc1ccc(Oc2ccccc2)cc1 (centres undefined)
 : -12.9	-3.8	2.4	0.4%	.
COC(=O)/C(=C(O)\C=C\c1ccccc1[N+](=O)[O-])c1nc2ccccc2[nH]1
 : .	-0.7	3.3	.	.
Cc1c(C)n2c3c(cccc13)CC2
 : 8.7	3.5	-0.7	-5.0%	.
CCN1CCN(S(=O)(=O)c2ccc(Cl)c(C(=O)Nc3nnc(CC(C)C)s3)c2)CC1
 : 6.5	-12.0	-0.3	-4.6%	-9.3
NNC(=O)C1COc2cc3ccccc3cc2O1 (centres undefined)
 : .	-1.0	-4.1	.	.
COc1ccc(OCCn2cc(/C=C(\C#N)C(=O)NCc3ccco3)c3ccccc32)cc1
 : -19.5	-3.0	-7.8	-0.6%	-16.6
Cc1ccc2c(c1)C(c1ccccc1)N(C(=O)c1cc3ccccc3oc1=O)CC(=O)N2 (centres undefined)
 : 0.6	-1.1	2.1	.	-40.8
CCc1cc(Cn2nc(-c3ccccc3)cc2C(=O)O)on1
 : .	0.1	-1.5	.	.
Cn1c(=O)n(C)c2cc([N+](=O)[O-])c(N3CCN(S(=O)(=O)c4ccc5ccccc5c4)CC3)cc21
 : -4.1	1.4	-1.6	1.0%	1.8
CCOC(=O)C1(CCOC)CCN(Cc2ccccc2-c2ccco2)CC1
 : 4.8	-5.2	-4.2	-1.7%	.
Cc1sc(NC(=O)CSc2nnc(CCNC(=O)c3cccs3)n2C)nc1-c1ccccc1
 : -18.4	-1.2	0.2	0.7%	-3.5
O=C(CSc1ccc2ccccc2c1)NCc1cccs1
 : 2.2	9.1	16.4	11.3%	-22.7
Cc1cc(C)c(C)c(S(=O)(=O)N2CCN(Cc3nc4ccccc4[nH]3)CC2)c1C
 : 4.1	4.4	.	1.2%	-31.1
O=C(C1CCCC1)N1CCCC(Nc2ccc(F)cc2)C1 (centres undefined)
 : .	-1.7	0.8	.	.
c1coc(-c2nnc(-c3ccc4c(c3)OCO4)o2)c1
 : -12.9	.	-1.2	3.0%	1.7
CC(=O)Nc1ccc2sc(NC(=O)CN3CCOCC3)nc2c1
 : .	1.8	-0.4	.	.
COCC(C)N1CC(O)=C(c2nc(-c3ccc(Cl)cc3)cs2)C1=N (centres undefined)
 : 2.8	9.0	-3.1	52.0%	.
CCCSc1ccc([C@H]2N[C@@](C)(C(=O)OC)[C@H]3C(=O)N(C)C(=O)[C@@H]23)cc1OC
 : .	4.8	-2.7	.	.
Cc1cccc(Nc2nc(N)c(C#N)c(CC#N)c2C#N)c1
 : -6.7	?	1.7	10.0%	-25.9
CC(=O)N1CCN(c2nnc(-c3ccc(C)cc3)c3ccccc23)CC1
 : .	0.2	-0.6	.	.
Cc1cccc(N(CC(=O)NCCc2ccccc2)C(=O)c2csnn2)c1
 : .	-1.8	0.7	.	.
CC(C)(C)NC(=O)Cn1c(SCC(N)=O)nc2ccccc21
 : 14.2	-3.2	0.9	-7.9%	-140.9
OCCN1CCN(c2cc(-c3ccccc3)c3ccccc3n2)CC1
 : -30.8	2.1	1.1	-0.7%	-22.6
Cc1cc(Cl)c(S(=O)(=O)N2CCN(c3ccccn3)CC2)cc1OCC(=O)NC1CCCCC1
 : .	-5.5	8.9	1.4%	.
CCOC(=O)C1C(=O)OC(C)(C)C1C(C)C(=O)c1ccccc1 (centres undefined)
 : 14.5	8.7	-0.8	-6.4%	3.5
COc1ccc(OC)c(Nc2ncnc3ccccc23)c1
 : -1.5	-3.8	1.6	10.1%	-4.9
O=C(O)c1ccccc1-c1nc2ccccc2c(=O)[nH]1
 : 3.7	-1.6	.	-11.0%	-34.2
CCCCCCCCC(=O)NNC(=O)c1c(O)c2ccccc2n(CC)c1=O
 : -20.9	2.4	0.4	-6.9%	.
CCc1cccc(NC(=O)Cn2ncn3c(cc4ccccc43)c2=O)c1
 : 0.4	10.6	-2.4	-8.9%	-14.0
O=S(=O)(Nc1cccnc1)c1ccc2c(c1)OCCO2
 : 9.2	-7.4	2.5	-2.3%	-46.1

Molecules above that have fluorine:
Every second line gives: Arbovirus inh	Mtb betalactam	RecA intein inh	Mtb H37Rv	YopH inh
O=C(NCCc1ccc(Cl)cc1)C1CCCN1C(=O)Nc1ccc(F)cc1 (centres undefined)
 : .	0.8	1.3	.	.
O=C(C1CCCC1)N1CCCC(Nc2ccc(F)cc2)C1 (centres undefined)
 : .	-1.7	0.8	.	.

Additional records.
Every second line gives: Arbovirus inh	Mtb betalactam	RecA intein inh	Mtb H37Rv	YopH inh
COc1ccc(OCC(O)CNC(=O)Nc2cc(C)cc(C)c2)cc1 (centres undefined)
 : .	0.2	4.1	-16.7%	.
Cn1nnnc1SCCNC/C=C/c1ccccc1
 : 4.5	3.9	-0.7	0.6%	-38.9
Cc1ccc(CSc2sc(C(=O)c3ccccc3)c(N)c2C#N)cc1
 : -11.8	-1.5	4.9	3.1%	-14.4
CCOC(=O)c1[nH]c(=O)[nH]c1CSc1ccccn1
 : 3.6	-16.2	1.2	-0.6%	-37.4
CC1CN(C(=O)C2CCCN2S(=O)(=O)c2ccc(Cl)cc2)CC(C)O1 (centres undefined)
 : -2.3	8.1	1.0	-3.9%	-19.4
COc1ccc(NS(=O)(=O)c2cccc(C(=O)N3CCN(Cc4cc(OC)ccc4OC)CC3)c2)cc1
 : .	-7.7	2.1	.	.
CN1CCN(C(N)=NC(=O)c2ccccc2)CC1
 : 3.1	-0.6	-1.3	0.4%	-33.0
Cc1ccc(S(=O)(=O)n2nc(-c3cccnc3)nc2N)cc1
 : 0.5	-1.8	0.1	-19.4%	-18.6
COc1ccc([N+](=O)[O-])cc1/C=N/Nc1nc(N2CCCCC2)nc(N2CCCCC2)n1
 : 17.7	-0.2	1.3	1.7%	.
COc1ccc(-c2nnc(SCC(=O)c3cccs3)o2)cc1
 : -6.1	59.5	8.1	12.7%	14.3
CN(C)C(=O)Oc1c(Cl)cc(Cl)c2ccccc12
 : 14.9	3.6	1.2	10.2%	-4.7
Cc1cc(=O)n(-c2ccc(Cl)cc2)c(=O)[nH]1
 : 14.1	0.9	-1.7	0.4%	.
O=C(CN1C(=O)/C(=C/c2ccc(Cl)cc2)SC1=S)NC1C=CS(=O)(=O)C1 (centres undefined)
 : .	6.1	-0.7	.	.
Cc1ccccc1NC(=O)CC1SC(=O)N(c2ccccc2)C1=O (centres undefined)
 : 1.2	-3.1	1.9	4.6%	-7.5
Cc1nn(Cc2c(F)c(F)c(F)c(F)c2F)c(C)c1NC(=O)c1c([N+](=O)[O-])cnn1C
 : 3.9	-7.4	-1.3	-1.4%	-11.7
Cc1cccc(N2C(=O)N(c3ccccc3C)C3CS(=O)(=O)CC32)c1 (centres undefined)
 : 8.7	-1.2	.	2.4%	5.1
COc1ccc(S(=O)(=O)N2CCC(C(=O)NCc3cccnc3)CC2)cc1Cl
 : .	6.2	-2.8	.	.
Cc1ccc(OCCOCCn2cnc3ccccc3c2=O)c([N+](=O)[O-])c1
 : 0.4	-4.5	1.2	2.6%	-27.3
CC1(C)CC2(CCCN3C(=O)CSC32)CCS1 (centres undefined)
 : 6.6	-15.7	0.6	-17.9%	0.2
CC(=O)c1c(C)nc(-c2ccc(Cl)cc2)nc1N=CN(C)C
 : 0.2	7.1	-4.4	5.5%	0.5
O=C(Nc1ccc(Cl)cc1)c1ccc2ncsc2c1
 : .	-7.8	-2.1	.	.
Cc1cc(C)n(-c2cccc3cccnc23)n1
 : 0.2	-14.1	-3.9	-7.8%	-16.5
COc1ccccc1CNS(=O)(=O)c1ccc(S(=O)(=O)NC2CC2)cc1
 : .	4.3	1.8	.	.
Cn1nc(C(C)(C)C)c([N+](=O)[O-])c1C(=O)Nc1cccc2ccccc12
 : .	98.9	1.9	61.1%	.
O=C(NC1=NCCS1)c1ccccc1Cl
 : .	-10.8	-1.2	.	.
O=C(c1ccc(COc2ccc(Cl)cc2)o1)N1CCN(Cc2ccc3c(c2)OCO3)CC1
 : -5.9	90.3	13.3	10.8µM*	17.2
NC(=O)c1c(NC(=O)C(=O)N2CCOCC2)sc2c1CCC2
 : .	-4.8	-5.1	.	.
CS(=O)(=O)N1CCN(C(=S)NCc2ccc(F)cc2)CC1
 : 6.8	-10.1	0.7	-4.8%	-2.8
O=C(CCCCO)c1ccc(O)c(Cl)c1
 : .	0.8	1.1	.	.
Cc1cc(Cl)c2ccc(Cl)cc2n1
 : .	-14.2	-1.4	-8.5%	.

The closing two compounds of the part before open the next one:
Every second line gives: Arbovirus inh	Mtb betalactam	RecA intein inh	Mtb H37Rv	YopH inh
O=C(CCCCO)c1ccc(O)c(Cl)c1
 : .	0.8	1.1	.	.
Cc1cc(Cl)c2ccc(Cl)cc2n1
 : .	-14.2	-1.4	-8.5%	.
COc1ccc(CS(=O)(=O)CC(C)(O)c2ccccc2Cl)cc1 (centres undefined)
 : .	25.4	-2.5	.	.
O=c1c2ccccc2nc(/C=C/c2ccc([N+](=O)[O-])o2)n1-c1ccc(O)cc1
 : -9.6	.	-3.9	?	.
Clc1ccc(-[n+]2c(-c3cccc(Br)c3)[nH]c3nc4ccccc4nc32)cc1
 : .	90.0	-2.4	>100µM*	.
Cc1ccnc(NS(=O)(=O)c2ccc(NC(=O)CCc3ccccc3)cc2)n1
 : .	-7.3	-0.6	.	.
Cc1ccc(C2CC(=O)C=C(Nc3ccc(Cl)cc3)C2)cc1 (centres undefined)
 : 1.8	-3.8	-0.2	7.9%	-4.9
CN(CCOc1ccccc1)C(=O)C1CCC(=O)N(CCc2ccc(Cl)cc2)C1 (centres undefined)
 : .	1.3	3.9	.	.

Record cards, from the list above.
COc1ccc(S(=O)(=O)N2CCC(C(=O)NCc3cccnc3)CC2)cc1Cl is entered as Arbovirus inh: .; Mtb betalactam: 6.2; RecA intein inh: -2.8; Mtb H37Rv: .; YopH inh: .
CCOC(=O)C1C(=O)OC(C)(C)C1C(C)C(=O)c1ccccc1 (centres undefined) is entered as Arbovirus inh: 14.5; Mtb betalactam: 8.7; RecA intein inh: -0.8; Mtb H37Rv: -6.4%; YopH inh: 3.5
